miR-21 FLuc = miR-21 reporter, rising signal. HeLa miR-21 FLuc reporter, luciferase, 48 h. Potency, µM (series often up to 38.3 µM), for inactives: at the highest dose reporter change, positive = more light. 340,000 tested, under 10 active. AID 2288; active = well fitted rising curve with a large enough effect; inconclusive = small, poorly fitted or top-dose-only effect; inactive = no such curve, though single readings can be large or run the other way;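 also: % of control where 0% means no effect; miR-21 action dims this reporter so a rising signal means less miR-21 action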
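HeLa cells stably expressing CMV-driven firefly luciferase with a downstream miR-21 binding sequence, endogenously expressing miR-21, were treated with titrations (up to about 40uM final) for 48 hours at 37 degree Celsius. Luciferase luminescence was read after lysis.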
Numbers without * were called inactive; ? = inconclusive. A portion of the library; rates above refer to the full screens.

miR-21 FLuc | structure
-3.6% | CCOc1ccc2nc(N3CCCC(C(=O)Nc4ccccc4CC)C3)sc2c1 (centres undefined)
-5.0% | O=C(NCCc1ccccc1)c1ccc(CSc2nc3cccnc3n2Cc2ccccc2)cc1
0.0% | Cc1ccc(NC(=O)Cn2nc(C)c3nn(-c4ccc(Cl)cc4)c(C)c3c2=O)cc1C
? | CCCCc1ccc(NC(=O)c2ccc(=O)n(Cc3cccc(C)c3)c2)cc1
3.6% | CC(C)Cn1c(=O)c2sccc2n2c(CCCC(=O)NC3CCCCC3)nnc12
27.7% | O=C(NCc1cccs1)c1nn(-c2ccccc2Cl)nc1CO
17.5% | CCC1=C(c2ccc(C)cc2)S(=O)(=O)N=C1N1CCC(C(=O)Nc2ccccc2C(=O)OC)CC1
8.5% | COc1ccc(CNC(=O)c2ccc3c(Cl)c4c(nc3c2)CCCC4)c(OC)c1
-2.5% | CCCN(CCC)CCCNC(=O)C1CCN(S(=O)(=O)CC)CC1
-7.6% | CCOC(=O)c1c(C)oc2nc(C)nc(NCc3ccccc3OC)c12
? | CC(C)(C)c1ccc(OCC(=O)N(Cc2ccco2)Cc2ccccc2F)cc1
-0.3% | CCc1ccccc1N(C)C(=O)c1nn(C)c2c1CSc1ccccc1-2
-42.9% | COC(=O)c1cc(Nc2nc3ccccc3nc2NS(=O)(=O)c2ccc(C)cc2)ccc1Cl
11.8% | Cc1nc2cccnc2n1C1CCN(S(=O)(=O)c2ccc(Cl)cc2)CC1
-0.6% | CC(C)c1ccc(NC(=O)CSc2ncc3c(n2)-c2ccccc2N(C)S3(=O)=O)cc1
3.7% | CCCCn1cc(S(=O)(=O)c2ccc(OC)cc2)c(=O)c2cc(CC)ccc21
1.9% | CCOc1ccccc1NC(=O)Cn1c(=O)n(CCC(C)C)c(=O)c2cccnc21
6.8% | CCOC(=O)c1nc(Nc2ccc(C(=O)OCC(C)C)cc2)c2ccccc2n1
-4.9% | CCOC(=O)c1cnc2cc(F)c(F)cc2c1Nc1ccccc1O
-0.5% | CCOc1ccc(NC(=O)NCCn2nnc3cc(S(=O)(=O)N(C)C)ccc32)cc1
3.0% | Cc1c2cnn(-c3ccccc3)c(=O)c2c(C)n1CC(=O)NCCc1ccc(Cl)cc1
18.3% | CCN(CC)C(=O)c1sc2c(c1C)c(=O)n(-c1ccc(C)c(C)c1)c(=O)n2CC(=O)Nc1ccc(F)cc1
-2.5% | CCC(C)NC(=O)CCCN1C(=O)CCn2nc(-c3cccn3C)cc21 (centres undefined)
-7.9% | O=C(Nc1ccccc1)c1cn(-c2ccccc2)nc1-c1ccccc1
-0.9% | CC1=C(c2ccc(C)c(C)c2)S(=O)(=O)N=C1N1CCC(C(=O)NCCc2ccco2)CC1
4.8% | Cc1ccc(-c2c(CN3CCN(c4cccc(C)c4)C(C)C3)csc2C)cc1 (centres undefined)
1.0% | COc1ccc(N2CC(C(=O)Nc3ccccc3-c3nc(-c4ccc(C)cc4)no3)CC2=O)cc1 (centres undefined)
-24.4% | Cc1ccc(C)c(N2CCN(CCCNC(=O)c3ccc4nc(N5CCC(C)CC5)sc4c3)CC2)c1
-10.0% | Cc1cccc(NC(=O)Cn2nc3c4ccccc4n(Cc4ccccc4)cc-3c2=O)c1
-11.8% | CCOC(=O)c1ccc(NC(=O)C(CC)Sc2nncn3c2cc2oc(C)cc23)cc1 (centres undefined)
-2.6% | CCc1ccc(CNC(=O)CN2C(=O)CSc3c2c(C)nn3-c2ccccc2)cc1
-1.1% | COc1ccccc1OCCSc1nc2ccccc2n1CC(=O)N1CCOCC1
-1.7% | Cc1cccn2c(=O)c3cc(C(=O)NC(C)c4ccccc4)c(=N)n(CCOCCO)c3nc12 (centres undefined)
15.0% | COc1cccc(CNC(=O)c2cc3c(-c4ccccc4F)nn(C)c3s2)c1
-3.7% | CCOc1ccccc1CNC(=O)CCn1c(=O)c2cccn2c2ccc(F)cc21
22.1% | COc1cccc(CNCCSc2nnnn2C)c1OCc1ccc(Cl)cc1
-7.3% | CC(=O)c1ccc(N2CCN(c3nc4ccccc4c4nc(-c5cccc(C)c5)nn34)CC2)cc1
14.0% | COc1cccc(CNC(=O)CN2C(=O)N(c3cccc(Cl)c3)S(=O)(=O)c3ccccc32)c1OC
-4.0% | Cc1ccc(C(=O)c2cn(Cc3ccccc3)c3cc4c(cc3c2=O)OCCO4)cc1
1.4% | COc1cccc(OCC(=O)NCCS(=O)(=O)N2CCN(c3ccccc3F)CC2)c1

3 entries out of the list above, sorted by their value in miR-21 FLuc, largest number first:
miR-21 FLuc | structure
15.0% | COc1cccc(CNC(=O)c2cc3c(-c4ccccc4F)nn(C)c3s2)c1
-0.9% | CC1=C(c2ccc(C)c(C)c2)S(=O)(=O)N=C1N1CCC(C(=O)NCCc2ccco2)CC1
-2.5% | CCC(C)NC(=O)CCCN1C(=O)CCn2nc(-c3cccn3C)cc21 (centres undefined)

Carrying on.
miR-21 FLuc | structure
-1.3% | O=C(CNC(=O)c1ccc(F)cc1)OCc1cc(=O)n2nc(C3CC3)sc2n1
-3.7% | O=C(CSc1ncc(S(=O)(=O)c2ccc(Br)cc2)c(=O)[nH]1)Nc1ccc2c(c1)OCCO2
-5.3% | Cc1cc(C)cc(-n2c(C)nc3cc(C(=O)NCc4ccc(F)cc4)ccc32)c1
-15.0% | Cc1nc(-c2cccc(NC(=O)Nc3ccccc3C(F)(F)F)c2)no1
1.3% | COc1ccc(CNC(=O)CN2C(=O)COc3ccc(S(=O)(=O)N4CCCCCC4)cc32)cc1
18.4% | Cc1c(Cl)cccc1NC(=O)CCN1C(=O)c2ccccc2Sc2ncccc21
10.7% | Cc1ccc(C)c(NC(=O)Cn2cc(S(=O)(=O)c3ccc(F)cc3)c(=O)c3cc(F)ccc32)c1
-4.7% | COc1ccc(-c2noc(CC(=O)Nc3ccc(Br)cc3C)n2)cc1
5.0% | Cc1ccc(C)c(NC(=O)CN(Cc2ccccc2)S(=O)(=O)c2ccc3nc(C)sc3c2)c1
0.4% | CCOc1ccc(NC(=O)CSc2ncc(S(=O)(=O)c3ccc(F)c(C)c3)c(=O)[nH]2)cc1
-0.5% | Cc1ccc(Nc2c(-c3ccc(Cl)cc3)nc3sccn23)c(C)c1
-59.5% | COc1ccc(NC(=O)CCc2c(C)nn(-c3ccc(N4CCCC4)nn3)c2C)cc1Cl
23.6% | COCCCNC(=O)c1sc2nc(C)c(C(=O)Nc3ccc(C)cc3C)c(-c3ccccc3Cl)c2c1N
? | CC(C)c1ccc(NC(=O)c2ccc3c(c2)CCCN3S(C)(=O)=O)cc1
-0.6% | Cc1cc(C)cc(-n2ccn3cnnc3c2=O)c1
? | COc1ccc(Nc2c3c(nc4nncn24)CCC3)cc1Cl
19.5% | CCOc1cc(CNC(=O)C2CCN(c3nc4ccccc4[nH]3)CC2)cc(OCC)c1OCC
3.1% | COc1ccc(C(CNC(=O)c2cccc([N+](=O)[O-])c2)N2CCOCC2)cc1 (centres undefined)
? | CCc1nc2ccccc2n1CCCCOc1ccc(C)cc1
-22.5% | COc1ccc(Cn2c(CCC(=O)NCc3cccc(Cl)c3)nc3cccnc32)cc1
17.5% | CCc1c(C)nc2nncn2c1NCc1ccccc1
-3.3% | CCc1ccccc1NC(=O)c1nn(-c2ccc(C)cc2)c(=O)c2c1c1ccccc1n2C
3.8% | Cc1cccc(OCC(=O)Nc2ccc3nc(Nc4cccc(Cl)c4)cc(C)c3c2)c1
-7.1% | Cc1c(Cl)cccc1NC(=O)CCS(=O)(=O)c1ccc(Br)s1
12.9% | Cc1ccc(-c2cnc(NCc3ccc(C(F)(F)F)cc3)n2C)cc1
? | CCOc1ccc(/C=C/c2nc(C#N)c(NCCc3ccccc3)o2)cc1
11.5% | CCOc1ccc(C(=O)Nc2ccc3c(c2)CCCN3S(=O)(=O)c2ccc(C)cc2)cc1
-0.7% | CCOC(=O)N1CCc2c(sc3c2C(=O)NC(c2ccccc2F)N3)C1 (centres undefined)
12.1% | Cc1ccc(CN(C(=O)COc2cccc([N+](=O)[O-])c2)c2ccccn2)o1
-14.5% | CC1CCC(NC(=O)CCc2cn(Cc3ccc(F)cc3)c3ccccc23)CC1 (centres undefined)
6.0% | CCN(CC)c1ccc(CNS(=O)(=O)c2cc3c(cc2C)NC(=O)CO3)cc1
6.0% | O=C(NCc1ccccc1)c1ccc(CSc2nc3cccnc3n2Cc2ccccc2F)cc1
-7.2% | CCc1ccc(NC(=O)Cn2cc(S(=O)(=O)N3CCCC3)c(S(=O)(=O)N3CCCC3)c2)cc1
-6.4% | CCCOC(=O)c1c(NC(=O)c2cc3nc(-c4ccc(OC)cc4)cc(C(F)(F)F)n3n2)sc2c1CCCC2
-10.8% | Cc1ccccc1CNC(=O)c1ccc(Cn2c(SCc3ccccc3)nc3cccnc32)cc1
0.7% | CCOC(=O)CNC(=O)N1CCCN(S(=O)(=O)c2ccc3c(ccn3CC)c2)CC1
-26.2% | CCCCc1nn2c(=O)cc(COC(=O)c3cccc(NC(=O)CCc4ccccc4)c3)nc2s1
4.6% | O=C(Nc1ccccc1C(F)(F)F)c1ccc(F)c(S(=O)(=O)N2CCc3ccccc3C2)c1
-1.6% | CCc1cccc(CC)c1NC(=O)c1c(C)oc2ccc(O)c(CN3CCN(C)CC3)c12
-14.5% | CC(=O)c1ccc(NC(=O)c2cc(-c3ccc(C)s3)nc3ccccc23)cc1
-1.7% | COc1cccc(CNC(=O)c2cnc(N3CCCCC3)c3ccccc23)c1
4.3% | COc1ccc(CNC(=O)Cn2ccc3cc(S(=O)(=O)N4CCCCC4)ccc32)c(OC)c1
-5.0% | N#Cc1ccccc1NC(=O)C(=O)NCC(c1cccnc1)N1CCc2ccccc2C1 (centres undefined)
-6.6% | Cc1cccc(OC(=O)c2cc(-c3ccc(Cl)cc3)on2)c1C
-5.7% | CCOC(=O)c1cc(NC(=O)c2ccccc2)c(=O)n2c1oc1ccc(Cl)cc12
-1.9% | CCCN(CCC)C(=O)Cn1c(=O)n(CCCCCC(=O)NCc2ccccc2Cl)c(=O)c2sccc21
2.2% | Cc1ccc2onc(CC(=O)N3CCN(c4cc(Cl)ccc4C)CC3)c2c1
3.7% | COc1ccc(C)cc1NC(=O)C(Cc1ccccc1)NS(=O)(=O)c1cccs1 (centres undefined)
-16.5% | Fc1cccc(-n2ncc3c2ncn2nc(-c4ccccc4Cl)nc32)c1
0.4% | CCOC(=O)c1c(S(=O)(=O)N2CCC(C(=O)Nc3ncccc3C)CC2)c(C)n(C)c1C
-7.0% | Cn1nc(-c2ccc(C(=O)Nc3cccc(C(F)(F)F)c3)cc2)c2ccccc2c1=O
18.4% | COc1ccc(-c2noc(N3CCC(C(=O)N4CCN(c5ccccc5OC)CC4)CC3)n2)cc1
-10.9% | Cc1cccc(NC(=O)c2c(C)cc(C)nc2SCC(=O)c2ccccc2)c1
0.6% | Cc1ccccc1NC(=O)c1c2c(nc3ccccc13)C(=O)N(C1CCCCC1)C2
15.9% | CCc1cc2c(cc3c(=O)n(CCCC(=O)NCc4cccc(Br)c4)ncn32)s1
-1.0% | Cc1cc(C)cc(NC(=O)C2CCN(c3nc4ccccc4nc3C(F)(F)F)CC2)c1
6.7% | Nc1ncc(S(=O)(=O)NCc2ccccc2)cn1
19.3% | COc1ccc(CCNC(=O)c2ccc3c(c2)ncn3-c2ccc(C(C)C)cc2)cc1OC
-0.7% | CCc1cccc(C)c1NC(=O)c1cnn(-c2ccc(F)cc2)c1-n1cccc1
0.8% | CCn1cc(C(=O)N(C)Cc2ccccc2)c(=O)c2cc(S(=O)(=O)N3CCc4ccccc4C3)ccc21

Following part.
miR-21 FLuc | structure
-29.0% | Cc1ccc(NC(=O)c2ccc(-c3cccc(Cl)c3C)o2)cc1
-4.3% | Cc1ccc(Cn2c(C(=O)O)c(CNC3CCCCC3)c3ccc(C)cc32)cc1
26.9% | Cc1c(C(=O)Nc2ccc(F)c(F)c2)oc2ccc(S(=O)(=O)N(C)C3CCCCC3)cc12
-20.4% | CCC(C)c1ccccc1OCC(=O)Nc1ccc(S(=O)(=O)Nc2cc(C)on2)cc1 (centres undefined)
27.1% | COc1ccc(C(=O)NCC(c2cccs2)S(=O)(=O)c2ccc(C)cc2)cc1 (centres undefined)
0.2% | COc1ccc2c(c1)c1c(c(=O)n(-c3cccc(Cl)c3)c(=O)n1CC(=O)NCC1CCCO1)n2C (centres undefined)
-62.7% | COc1ccccc1C(=O)OCc1cc(=O)n2nc(C3CC3)sc2n1
2.5% | COc1ccc(CCNC(=O)CCc2c(C)c3cc4c(C)coc4cc3oc2=O)cc1
4.8% | Cc1nc2c(-c3ccc(F)cc3)c(C)nn2c(C)c1CCC(=O)NCc1cccc(Cl)c1
-35.1% | CCOC(=O)c1ccc(NC(=O)C2Cc3ccccc3C(=O)O2)cc1 (centres undefined)
3.6% | O=C(O)c1cc(-n2c(/C=C\c3ccc(F)cc3)nc3ccccc3c2=O)ccc1Cl
-0.2% | N#C/C(=C\c1c(Oc2ccc(F)cc2)nc2ccccn2c1=O)c1nc2ccccc2s1
-0.1% | COc1ccc(OC)c(NC(=O)C2CCN(S(=O)(=O)c3c(C)noc3/C=C/c3ccc(C)cc3)CC2)c1
-1.4% | COC(=O)c1ccccc1NC(=O)CCCn1c(C)c2cnn(-c3ccccc3)c(=O)c2c1C
7.6% | COc1ccc(N2CCN(C(CNC(=O)c3ccc(C)cc3)c3ccc4c(c3)OCO4)CC2)cc1 (centres undefined)

A draw from above in order of count of non-hydrogen atoms, smallest number first.
miR-21 FLuc | structure
-62.7% | COc1ccccc1C(=O)OCc1cc(=O)n2nc(C3CC3)sc2n1
27.1% | COc1ccc(C(=O)NCC(c2cccs2)S(=O)(=O)c2ccc(C)cc2)cc1 (centres undefined)
-20.4% | CCC(C)c1ccccc1OCC(=O)Nc1ccc(S(=O)(=O)Nc2cc(C)on2)cc1 (centres undefined)
26.9% | Cc1c(C(=O)Nc2ccc(F)c(F)c2)oc2ccc(S(=O)(=O)N(C)C3CCCCC3)cc12
-0.1% | COc1ccc(OC)c(NC(=O)C2CCN(S(=O)(=O)c3c(C)noc3/C=C/c3ccc(C)cc3)CC2)c1

Screening results: PubChem BioAssay, National Center for Advancing Translational Sciences (NCATS)
